2A Renilla – lowers the Renilla signal of an FMDV 2A StopGo reporter | HEK cells with a luciferase reporter of 2A StopGo recoding | Potency, µM (top dose mostly 57.5 µM), for the others: at the top dose signal change, negative = less light | actives 0.32% (n = 120,000) | AID 1745857; active means well fitted falling curve with a large enough effect; inconclusive means small, poorly fitted or top-dose-only effect; inactive means no such curve, though single readings can be large or run the other way; also: nearly all actives have a fitted effect of over 55% in size; overnight with compound
2A firefly – lowers the firefly signal of an FMDV 2A StopGo reporter; Potency, µM (doses to about 57.5 µM), without a hit: top-dose signal change, negative = less light; actives 0.23% (n = 120,000); AID 1745856; HEK cells with a luciferase reporter of 2A StopGo recoding; active = well fitted falling curve with a large enough effect; inconclusive = small, poorly fitted or top-dose-only effect; inactive = no such curve, though single readings can be large or run the other way; also: nearly all actives have a fitted effect of over 60% in size; overnight with compound
Numbers without * were called inactive; ? = inconclusive; & = joins results of further samples; [ ] = another dose, or the depositor's remark. % is scaled to controls: 0 for no effect and ±100 for the full control effect; potency is read from the fitted curve at half-maximal effect.

smiles	2A Renilla	2A firefly
COC(=O)N/N=C/c1cc(Cl)cc(Cl)c1OCCCOc1ccccc1	-2.1%	4.3%
Cc1nnc(NC(=O)c2cccn(Cc3cccc([N+](=O)[O-])c3)c2=O)s1	-10.9%	16.0%
CCN1CCCC1CNC(=O)C1CCN(c2nc(Cl)nc3nc[nH]c23)CC1 (stereo not given)	6.1%	17.0%
CC(=O)OC1CC2(O)[C@@H]3CCC4CC(OC5CC(O)C(OC6CC(O)C(OC7CC(O)C(O)C(C)O7)C(C)O6)C(C)O5)CCC4(C)[C@H]3CCC2(C)C1C1=CC(=O)OC1 (stereo not given in full)	?	0.631µM*
COc1cccc2c1cc1c(=O)n(CC(=O)NC3CCCCC3)nc(C)n12	-2.4%	-7.5%
CC1=C(C(=O)Nc2ccc(F)c(F)c2)C(c2ccc(F)cc2)NC(=S)N1 (stereo not given)	1.3%	-3.0%
O=C(NCCc1cccnc1)c1ccc(F)cc1	14.6%[1.06 µM]	157.0%[activator]
Cc1nn(C)c2c1c(-c1ccccc1)cc(=O)n2CC(=O)NC(C)c1ccccc1 (stereo not given)	-7.4%	-24.0%
CCOC(=O)c1ccc(NC(=O)CC2Nc3cccc4cccc(c34)NC2=O)cc1 (stereo not given)	16.3%	-4.0%
CCOc1ccc(CN2C(=O)c3ccccc3Sc3ccc(C(=O)NCCc4ccccc4)cc32)cc1	19.3%	0.0%
CCOc1ccc(CNC(=O)c2ccc(NC(=O)N3CCCCc4ccccc43)cc2)cc1OC	-5.4%	-2.0%
Cc1ccc(-c2cc(C(=O)Oc3ccccc3Cl)no2)cc1C	-8.5%	29.5%
CCNc1nc(-c2ccc(NC(C)=O)cc2)cs1	0.0%	217.0%[activator]
CN1CCN(N)CC1	-5.5%	-13.9%
Cc1nn(C)c2nc(C(C)C)cc(C(=O)N3CCN(c4ncccn4)CC3)c12	-9.8%	-9.5%
Cc1ccc(NS(=O)(=O)c2ccc3c(c2)NC(=O)CCS3)cc1C	254.0%[activator]	-0.1%
COc1cccc(C2CC(=O)Nc3c2c(=O)[nH]c2nc4ccccc4n32)c1OC (stereo not given)	-8.0%	16.9%
CCCCSc1ncnc2c1sc1nc(N3CCOCC3)c3c(c12)CCCC3	16.1%	71.0%[activator]
Cc1ccc(C(=O)Nc2ccccc2SC2CCCC2)cn1	19.4%	-6.7%
CCOc1cc(C(=O)N2CC(=O)Nc3ccc(C)cc3C2c2ccccc2)cc(OCC)c1OCC (stereo not given)	0.4%&4.3%	-4.5%&7.4%
CC1CCC/C(=C(/C#N)c2nc(-c3ccccc3O)cs2)C1 (stereo not given)	67.3%[activator]	244.7%[activator]
CC1CCC(C(=O)NNC(=O)OC(C)(C)C)CC1 (stereo not given)	-2.9%	91.2%[activator]
O=C(Nc1ccccc1)c1cc(=O)c2ccccc2o1	1.7%	0.0%
CCc1ccc(NC(=O)N2CCN(c3nnc(C)c4c(C)n(-c5ccc(C)cc5)nc34)CC2)cc1	-3.2%	20.8%

Reformatted: results already given.
> O=C(Nc1ccccc1)c1cc(=O)c2ccccc2o1
  2A Renilla: 1.7% | 2A firefly: 0.0%

> CCOc1ccc(CNC(=O)c2ccc(NC(=O)N3CCCCc4ccccc43)cc2)cc1OC
  2A Renilla: -5.4% | 2A firefly: -2.0%

(listing goes on)
smiles	2A Renilla	2A firefly
O=C(c1ccccc1Nc1ccc(SC(F)F)cc1)N(C1CCCCC1)C1CCCCC1	?	?
CCNCc1ccc(-c2ccccc2F)o1	-3.2%	1.6%
CCc1cccc2c(C(=O)CN3C(=O)CC4(CCCCC4)C3=O)c[nH]c12	73.7%[activator]	108.0%[activator]
CNC(=O)NC(=O)CN(C)Cc1cccc(Cl)c1Cl	-7.5%	5.1%
COc1ccc(OC)c(CCNC(=O)C(C)n2nc(C)c3c(C)n(-c4ccc(C)cc4)nc3c2=O)c1 (stereo not given)	?	?
Cc1n[nH]c(C)c1S(=O)(=O)Nc1ncn(Cc2c(F)cccc2Cl)n1	9.7%	11.8%
CC(=O)c1cccc(NC(=O)c2cc(-c3ccc(Cl)s3)nc3ccccc23)c1	-9.2%	7.3%
CCCCOc1ccc2c(=O)c(Oc3ccccc3)c(C)oc2c1	16.5%	3.1%

Single records, from the list above. Order of screens: 2A Renilla | 2A firefly
Listed for CCc1cccc2c(C(=O)CN3C(=O)CC4(CCCCC4)C3=O)c[nH]c12 → 73.7%[activator] | 108.0%[activator]
Listed for CCNCc1ccc(-c2ccccc2F)o1 → -3.2% | 1.6%
Listed for CC(=O)c1cccc(NC(=O)c2cc(-c3ccc(Cl)s3)nc3ccccc23)c1 → -9.2% | 7.3%
Listed for Cc1n[nH]c(C)c1S(=O)(=O)Nc1ncn(Cc2c(F)cccc2Cl)n1 → 9.7% | 11.8%
Listed for O=C(c1ccccc1Nc1ccc(SC(F)F)cc1)N(C1CCCCC1)C1CCCCC1 → ? | ?

Next part:
smiles	2A Renilla	2A firefly
Cc1cc(C)c2oc(=O)cc(-c3oc4ccccc4c3N)c2c1	-0.7%	25.6%
Cc1cccc(C2(c3cccc(C)c3)CC2C(=O)NC(C)(C)C)c1 (stereo not given)	0.1%	-1.6%
Cc1ccc(Cl)cc1NC(=O)Cn1c(=O)n(Cc2ccc(C(=O)NCc3ccc4c(c3)OCO4)cc2)c(=O)c2ccccc21	-2.2%	-10.5%
O=C(Cc1cccc(F)c1)NCCc1nc2c(s1)CCCC2	5.6%	5.7%
CCc1ccccc1N(CC)C(=O)Cn1nc(Cc2cccnc2)c2ccccc2c1=O	-0.3%	2.9%
Cc1ccc(-n2nnc(-c3nsc(NC(=O)c4ccc(Cl)cc4)n3)c2C)cc1F	-9.9%	-9.2%
COC(CNC(=O)C(C)(C)C)c1ccccc1 (stereo not given)	-0.5%	0.0%

Part of the list above, reformatted:
O=C(Cc1cccc(F)c1)NCCc1nc2c(s1)CCCC2
- 2A Renilla: 5.6%
- 2A firefly: 5.7%

CCc1ccccc1N(CC)C(=O)Cn1nc(Cc2cccnc2)c2ccccc2c1=O
- 2A Renilla: -0.3%
- 2A firefly: 2.9%

Cc1ccc(-n2nnc(-c3nsc(NC(=O)c4ccc(Cl)cc4)n3)c2C)cc1F
- 2A Renilla: -9.9%
- 2A firefly: -9.2%

COC(CNC(=O)C(C)(C)C)c1ccccc1 (stereo not given)
- 2A Renilla: -0.5%
- 2A firefly: 0.0%
